# Source: PubChem
# MT1-MMP reporter = inhibitors of MT1-MMP promoter transcription, cell-based, luciferase reporter, luminescence (AID 618); MT1-MMP promoter luciferase reporter cells, luminescence; calls from a first round at 10 µM; hits with a dose series show EC50 in µM; 87,000 compounds, 0.62% hits;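 active = over half of the reporter light lost at 10 µM or EC50 under 50 µM; inactive = the rest and hits that failed the dose series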;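 note: actives suppress MT1-MMP promoter-driven transcription so potencies describe inhibitors; HT1080 fibrosarcoma cells; overnight exposure; toxic or luciferase-blocking compounds were not removed from the actives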
# WNV protease inh = WNV NS2B-NS3 proteinase inhibition; P06935; WNV NS2B-NS3 protease, fluorogenic substrate Ex360/Em465; hits give low values; z-score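 (tested at a level between 10 and 100 µM)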; 65,000 compounds, 0.18% hits;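 active = z-score at -3 or under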;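 note: score is relative to mean and spread of the compound wells of a plate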
# Target sequence (P06935 1371-1501 limits assumed): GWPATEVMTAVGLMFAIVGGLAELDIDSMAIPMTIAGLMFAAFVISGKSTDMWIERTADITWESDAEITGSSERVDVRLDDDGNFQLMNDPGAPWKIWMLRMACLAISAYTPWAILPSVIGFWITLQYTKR
# Target sequence (P06935 1502-1679 limits assumed): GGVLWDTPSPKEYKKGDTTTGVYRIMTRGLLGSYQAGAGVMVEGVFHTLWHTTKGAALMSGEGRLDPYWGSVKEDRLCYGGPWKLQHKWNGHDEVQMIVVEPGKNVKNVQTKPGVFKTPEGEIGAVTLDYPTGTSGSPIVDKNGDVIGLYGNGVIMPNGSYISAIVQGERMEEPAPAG
# Hsc70 = Hsc70 inhibitors, probe displacement, primary screen, biochemical, fluorescence polarization (AID 568) | Hsc70 fluorescence polarization, probe displacement; higher % means a stronger effect; strong numbers were not always called active | displacement, % at 20 µM, or IC50 in µM where a hit was titrated | 83,000 tested, under 10 active;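 active = displacement above 50% without optical interference and an IC50 on retest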;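 note: ATPase domain with a fluorescein-tagged ATP probe; 0% = vehicle and 100% = excess ADP; read after one hour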
# * marks the source's active call; other numbers are inactive results; i = inactive; / = no result given.
Molecule | WNV protease inh | Hsc70 | MT1-MMP reporter
CCCCOC(=O)Nc1ccc(N2CCCCC2)cc1 | / | -2.5% | i
O=C(O)CSc1nnc(-c2ccc3c(c2)OCO3)o1 | / | 4.4% | i
COc1ccc(C(=S)N2CCN(C)CC2)cc1Br | 1.6 | -0.2% | i
CCCCCCc1nnc(N)s1 | / | -3.2% | i
Cc1ccccc1C(=O)Nc1cccc(NC(=O)c2ccc(-c3ccc(Br)cc3)o2)c1 | / | 1.6% | i
COc1cccc(/C=C2\N=C3CCCCCN3C2=O)c1 | / | 2.6% | i
CCCn1c(SCC(=O)NC(=O)NCc2ccco2)n[nH]c1=O | -0.62 | 2.0% | i
COc1ccccc1NC(=O)C1CCCCC1 | -0.41 | -8.7% | i
Cn1nnnc1SCC(=O)NCc1cccc(C(=O)O)c1 | 0.53 | -7.9% | i
Cc1cccc(NC(=S)NN2CCN(C)CC2)c1C | / | 0.7% | i
c1ccc2c(c1)oc1c(NCc3ccc4c(c3)OCO4)ncnc12 | -0.21 | -2.2% | i
FC(F)(F)COc1nc(N2CCCCC2)nc(N2CCNCC2)n1 | -0.12 | 2.1% | i
CC(=O)Nc1nc2n(n1)C(c1ccc(F)cc1)C=C(c1ccccc1)N2 (stereo unspecified) | 1.3 | 8.4% | i
CCCCCCCC(=O)OCC(O)CO (stereo unspecified) | / | 3.0% | i
Cc1cc(C)n(-c2ccc(-n3ccnc3)nn2)n1 | -2 | 7.8% | i
O=C(CCSc1nc(-c2ccc3c(c2)OCO3)cc(C(F)(F)F)n1)NCc1ccccc1 | / | -1.8% | i
CCc1ccc(OCC(=O)OC2CCS(=O)(=O)C2)cc1 (stereo unspecified) | -0.56 | 0.3% | i
COc1ccccc1Nc1ncccc1C(=O)O | 0.78 | 0.0% | i
CCN(CCCNC(=O)C1CCC(=O)N1C1CCCC1)c1cccc(C)c1 (stereo unspecified) | 0.56 | -1.6% | i
CCN(C(=O)CSc1nncs1)c1c(N)n(Cc2ccccc2)c(=O)[nH]c1=O | 0.5 | -2.3% | i
O=C(c1ccc2c(c1)[nH]c(=S)n1c3ccccc3nc21)N1CCN(c2ncccn2)CC1 | -0.75 | -5.3% | i
O=C(O)CSCc1cnn(-c2ccccc2)c1-n1cccc1 | 0.97 | 2.2% | i
Nc1ccc(S(=O)(=O)N2CCCC2)cc1 | -0.77 | 3.1% | i
COc1ccc(-c2nnc3n2N=C(c2ccccc2)CS3)cc1OC | -0.75 | -5.8% | i
CCOC(=O)C1C(=O)CC(C)(O)C(C(=O)OCC)C1/C=C/c1ccccc1 (stereo unspecified) | 1.7 | 0.3% | i
CCc1ccc(N/C(SCc2cccc(F)c2)=C(/C#N)C(=O)NCc2ccco2)cc1 | -0.7 | -1.2% | i
O=C(O)C1CCCN1S(=O)(=O)c1ccc2c(c1)CCC2 (stereo unspecified) | -0.56 | -3.6% | i
CCOc1ccc(CNC(=O)C2CCCN(S(C)(=O)=O)C2)cc1OC (stereo unspecified) | 0.08 | 1.1% | i
CCCCn1c(-c2nn(C)cc2Cl)n[nH]c1=S | / | 1.3% | i
O=C(Cn1c(=O)c2c(ncn2Cc2ccccc2)n(Cc2ccccc2)c1=O)N1CCc2ccccc21 | / | 1.7% | i
O=C1NC2(CCCCC2)N=C1c1ccc(Br)cc1 | / | -3.1% | i
Cn1c(=O)c2c(nc(N3CCCCCC3)n2CCSc2nc3ccccc3o2)n(C)c1=O | -1.4 | 5.1% | i
COc1cccc(NC(=O)CN(c2ccc(C)cc2)S(=O)(=O)c2c(C)nn(C)c2C)c1 | -0.82 | 0.5% | i
COCc1c(C(=O)OCC(=O)N2c3ccccc3NC(=O)C2(C)C)oc2ccccc12 | 0.41 | -1.9% | i
Cc1ccc(NN2C(=O)C=C(c3ccc(Cl)cc3)C2=O)cc1 | / | 2.2% | i
Cc1ccc(S(=O)(=O)CC#CCOC(=O)c2ccc([N+](=O)[O-])cc2)cc1 | / | -3.1% | i
CCOc1ccc(NC(=O)C2CC(=O)N(c3cc(C)cc(C)c3)C2)cc1 (stereo unspecified) | 0.57 | -1.2% | i
Cc1cc(C)nc(NCCCc2ccccc2)n1 | -0.23 | 5.6% | i
O=C(CN1C(=O)CCS(=O)(=O)c2ccccc21)Nc1cccc(Cl)c1 | -0.07 | -3.1% | i
Cc1cc(C(=O)COC(=O)c2n[nH]c3ccccc23)c(C)n1CC1CCCO1 (stereo unspecified) | / | -1.5% | i
CCn1cc(Br)c(C(=O)NCc2ccco2)n1 | -0.62 | 0.9% | i
COc1ccc(CCNC(=O)Cn2cnc3c(nnn3Cc3ccccc3F)c2=O)cc1OC | -0.57 | 1.0% | i
O=C(N1CCOCC1)C1(c2ccccc2)CCCCC1 | 0.48 | -0.6% | i
CCc1nnc(NC(=O)CN2CCN(c3ccc(Cl)cc3)CC2)s1 | / | 3.3% | i
CC(=O)Nc1ccc(-c2cc3ccccc3o2)cc1 | -0.55 | 1.1% | i
c1ccc(Nc2nn[nH]n2)cc1 | 0.38 | 3.0% | i
O=C(Nc1ccc2oc(=O)ccc2c1)c1ccco1 | 0.51 | -7.8% | i
N#CCCSCc1ccc(OCC(=O)O)cc1 | -1.3 | 5.6% | i
CCC1(N(C(C)=O)c2ccc(OC)cc2)C(=O)c2ccccc2C1=O | 2.3 | 3.4% | i
C/C(=N\O)C(=O)NCCCn1ccnc1 | 0.3 | 5.0% | i

# Arranged by molar mass (smallest number first): 3 of the compounds above.
Molecule | WNV protease inh | Hsc70 | MT1-MMP reporter
COc1ccccc1NC(=O)C1CCCCC1 | -0.41 | -8.7% | i
O=C(Nc1ccc2oc(=O)ccc2c1)c1ccco1 | 0.51 | -7.8% | i
COc1ccc(-c2nnc3n2N=C(c2ccccc2)CS3)cc1OC | -0.75 | -5.8% | i

# The list continues.
Molecule | WNV protease inh | Hsc70 | MT1-MMP reporter
CC(C)CCn1c(CN2CCN(Cc3ccccc3)CC2)nc2c1c(=O)[nH]c(=O)n2C | 1.2 | 4.4% | i
Cc1cc(C(=O)Nc2nc3c(s2)CCCC3)cs1 | -0.13 | -1.5% | i
Cc1cc(C)nc(/N=C2/NC(=O)CS2)n1 | -0.21 | 2.1% | i
O=C(C(Cc1ccccc1)N1C(=O)C2C3C=CC(C3)C2C1=O)N1CCCCC1 (stereo unspecified) | / | 2.3% | i
Cc1nc2ccccn2c1/C(O)=C1\C(=O)C(=O)N(CCCN(C)C)C1c1ccc(Cl)cc1 (stereo unspecified) | -0.72 | 4.1% | i
Cc1ccc(CN(Cc2cc3cc4c(cc3[nH]c2=O)OCCO4)Cc2nnnn2Cc2ccco2)cc1 | / | 0.4% | i
Cn1c(SCC(=O)NCCN2C(=O)CSC2=O)nc2ccccc2c1=O | -0.64 | 1.0% | i
Cc1cc(C)nc(SCc2cccc(C(=O)O)c2)n1 | 0.28 | 3.1% | i
Cc1cc(OCCOCCN2CCCC2)ccc1C(C)C | 0.55 | -2.1% | i
CCOC(=O)C1CCCCN1C(=O)CCc1c(C)nc2cc(-c3ccccc3)nn2c1C (stereo unspecified) | -0.61 | 11% | 1.1µM*
Cc1ccc(S(=O)(=O)N2CCN(C(=O)COc3ccc(NC(=O)c4ccco4)cc3)CC2)cc1 | / | -2.4% | i
CCOc1ccc(N2CC(C(=O)Nc3ccc(N4CCOCC4)cc3)CC2=O)cc1 (stereo unspecified) | / | -0.4% | i
CCOC(=O)c1nc(-c2ccccc2)oc1N(C)C | -0.2 | 3.2% | i
CCOC(=O)C1=C(CSc2nc(-c3ccncc3)ccc2C#N)OC(N)=C(C#N)C1c1ccc(OC)cc1 (stereo unspecified) | / | -12% | i
COc1ccc(NC(=O)CSc2[nH]c(=O)cc(C)c2C#N)cc1OC | 0.07 | 2.6% | i
c1ccc(CN2CCN(c3nc(-c4ccccc4)nc4ccccc34)CC2)cc1 | / | -2.3% | i
N#CC1=C(N)Oc2c(oc(CO)cc2=O)C12C(=O)Nc1ccc(Cl)cc12 (stereo unspecified) | 0.0034 | 2.2% | i
CC(C)Sc1nc(N2CCCC2)c2c(c1C#N)CC(C)(C)OC2 | -1.1 | -2.3% | i
Cc1cc(C)cc(NC(=O)C2CCCN(c3nccc(C)n3)C2)c1 (stereo unspecified) | -0.64 | -0.3% | i
O=C(Nc1ccc(Cl)c(Cl)c1)N1CC=CCC1 | 1.9 | -3.5% | i
C[C@H](NC(=O)Nc1ccccc1F)C(=O)O | -0.29 | -6.0% | i
CCOC(=O)/C(C#N)=C1/C=CN(c2ccccc2)C=N1 | -0.91 | 2.8% | i
CCc1n[nH]c2c1/C(=N\O)CC(C)(C)C2 | -0.03 | 1.6% | i
Cc1cc(C(=O)CN2C(=O)NC(c3ccccc3)(c3ccccc3)C2=O)c(C)n1Cc1ccco1 | 2.8 | -29% | i
CC(C)c1ccc(C2NC(C(=O)O)CS2)cc1 (stereo unspecified) | / | -3.5% | i
Cc1onc(-c2ccccc2Cl)c1C(=O)NCc1ccccn1 | 0.71 | 1.4% | i
Cc1nc(-c2cccc(NS(=O)(=O)c3ccccc3)c2)cs1 | / | 3.6% | i
Cc1nc(SCC#N)c2c3c(sc2n1)CCC3 | 0.88 | -7.4% | i
CCCc1cc(-n2cnc3ccccc32)n2c(nc3ccccc32)c1C#N | / | -4.8% | i
S=C1SCN(CCN2CCOCC2)CN1Cc1ccccc1 | -0.69 | -4.3% | i
COc1ccc(C)cc1S(=O)(=O)N1CCN(S(=O)(=O)c2cc(C)ccc2OC)C(C)C1 (stereo unspecified) | 1.9 | 5.8% | i
CCOC(=O)C1CCN(C(=O)c2n[nH]c(=O)c3ccccc23)CC1 | -0.92 | 2.3% | i
CC(C)(C)CC(=O)Nc1nnc(-c2cccs2)s1 | -1.2 | 7.9% | i
O=c1[nH]c(CSc2nnc(NCCCN3CCOCC3)s2)nc2cc(Cl)ccc12 | 0.61 | 3.2% | i
O=C(CSc1nc2ccccc2c(=O)n1CCC(=O)N1CCCCC1)NCc1ccccc1 | -0.44 | -12% | i
CCCc1cc(=O)oc2cc(C)cc(OC(=O)c3ccco3)c12 | -0.25 | -5.2% | i
CC(C)CCNC(=O)C(c1cccnc1)N(Cc1ccccc1)C(=O)Cn1nnc2ccccc21 (stereo unspecified) | / | 4.4% | i
O=C(Oc1cccnc1)c1ccco1 | 1 | -4.1% | i
N#CC1=C(N)OC2=C(C(=O)CCC2)C1CCc1ccccc1 (stereo unspecified) | -0.22 | 2.0% | i
COc1ccccc1-c1nc(-c2ccc(C)nc2OC)no1 | -1 | 2.8% | i
Cc1ccc(N(CC(=O)NCc2ccc3c(c2)OCO3)S(=O)(=O)c2c(C)noc2C)cc1 | 0.13 | 5.4% | i
Cc1ccc(C)c(OCCCC(=O)Nc2ccc(N3CCOCC3)cc2)c1 | -0.74 | 3.1% | i
CC1=CS(=O)(=O)CC1Sc1ncn[nH]1 (stereo unspecified) | / | -2.2% | i
O=S(=O)(NCCc1csc(-c2cccnc2)n1)c1ccc2c(c1)OCCO2 | 1.1 | -2.7% | i
COc1cc(OC)c(NC(=O)c2c(-c3ccccc3)noc2C)cc1Cl | -0.46 | 7.7% | i
Cc1cc(NC(=O)C2CCN(S(=O)(=O)Cc3ccccc3)CC2)ccc1-n1cnnn1 | 1.3 | 6.9% | i
CCOc1cc2oc(=O)c3c(c2cc1Cl)CCC3 | 0.03 | -1.1% | i
CCC(=O)NCCc1nc2ccccc2n1Cc1ccccc1 | / | 2.5% | i
Cc1ccc(-c2c3c(=O)n(C)c(=O)n(C)c3c3nnc4ccccc4n23)cc1 | 0.13 | -144% | i
CC(C)N(C(=O)COC(=O)c1ccccc1C(=O)N1CCN(c2ccc(F)cc2)CC1)C(C)C | 0.85 | 1.2% | i

# Three entries from above, set out differently.
Cc1ccc(CN(Cc2cc3cc4c(cc3[nH]c2=O)OCCO4)Cc2nnnn2Cc2ccco2)cc1
- WNV protease inh: /
- Hsc70: 0.4%
- MT1-MMP reporter: i

Cn1c(SCC(=O)NCCN2C(=O)CSC2=O)nc2ccccc2c1=O
- WNV protease inh: -0.64
- Hsc70: 1.0%
- MT1-MMP reporter: i

Cc1cc(C)nc(SCc2cccc(C(=O)O)c2)n1
- WNV protease inh: 0.28
- Hsc70: 3.1%
- MT1-MMP reporter: i

# Later entries
Molecule | WNV protease inh | Hsc70 | MT1-MMP reporter
CCc1nc(N2CCN(c3nc(C)cc(C)n3)CC2)c2oc3ccccc3c2n1 | 1.5 | -1.8% | i
COC(=O)c1ccnc(/C=N/O)c1 | -0.74 | 1.2% | i
COc1ccc(C(=O)C(CN2CCCC2)c2ccccc2)cc1 (stereo unspecified) | 0.3 | 6.0% | i
CCOc1cc(C)nc(N2CCC(C(=O)Nc3ccccc3OCC)CC2)n1 | -0.05 | -4.6% | i
c1ccc([C@H]2CC3C[C@@H](c4ccccc4)N2O3)cc1 | / | -0.3% | i
COc1ccc(S(=O)(=O)NC(C)C(=O)Nc2cccc(C(C)=O)c2)cc1 (stereo unspecified) | 0.02 | -7.0% | i
O=P(O)(O)C(O)C(F)(F)C(F)(F)C(F)(F)C(F)F (stereo unspecified) | -0.47 | 5.3% | i
Cc1ccc(-c2ccccc2NC(=O)C2C3C=CC(C3)C2C(=O)O)o1 (stereo unspecified) | -0.1 | 0.6% | i
Cc1cc(OC(=O)N2CCCCC2)cc(C)c1Cl | -0.81 | -3.1% | i
Cc1cc(Nc2ncc(Cl)cc2Cl)n(-c2ccccn2)n1 | -0.76 | -2.7% | i
O=C1C=C(NCc2ccco2)CC(c2ccc(Cl)cc2)C1 (stereo unspecified) | -0.42 | -3.8% | i
